Screening data (PubChem BioAssay)
Mtb H37Rv – M. tuberculosis H37Rv growth inhibitors, H37Rv strain (AID 1626). 220,000 compounds, 0.95% hits. one-dose inhibition, % at 10 µM; IC50 in µM for titrated hits. M. tuberculosis H37Rv growth inhibition; higher % means a stronger effect;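 active = confirmed in a dose series; inconclusive = inhibition above 80% but not taken into the dose series; inactive = below 80% or under 30% at every dose of the series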;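 also: bacteria incubated seven days before Alamar blue readout; 0% = bacteria only wells and 100% = bacteria with antibiotic wells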
RecA splice inh – Mtb RecA intein splicing inhibitors, primary screen, biochemical, fluorescence, HTS | Protein RecA (Mycobacterium tuberculosis (strain ATCC 25618 / H37Rv)), P9WHJ3 | cell-free RecA intein splicing | inhibition, %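 (about 9 µM by stock and volumes)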 | 290,000 compounds, 0.75% hits; in the data active = inhibition above about 30%; inconclusive = no clear call, values can overlap the other calls;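 also: 0% = vehicle wells and 100% = reference inhibitor control wells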
Target sequence (P9WHJ3 whole entry, looked up, canonical isoform): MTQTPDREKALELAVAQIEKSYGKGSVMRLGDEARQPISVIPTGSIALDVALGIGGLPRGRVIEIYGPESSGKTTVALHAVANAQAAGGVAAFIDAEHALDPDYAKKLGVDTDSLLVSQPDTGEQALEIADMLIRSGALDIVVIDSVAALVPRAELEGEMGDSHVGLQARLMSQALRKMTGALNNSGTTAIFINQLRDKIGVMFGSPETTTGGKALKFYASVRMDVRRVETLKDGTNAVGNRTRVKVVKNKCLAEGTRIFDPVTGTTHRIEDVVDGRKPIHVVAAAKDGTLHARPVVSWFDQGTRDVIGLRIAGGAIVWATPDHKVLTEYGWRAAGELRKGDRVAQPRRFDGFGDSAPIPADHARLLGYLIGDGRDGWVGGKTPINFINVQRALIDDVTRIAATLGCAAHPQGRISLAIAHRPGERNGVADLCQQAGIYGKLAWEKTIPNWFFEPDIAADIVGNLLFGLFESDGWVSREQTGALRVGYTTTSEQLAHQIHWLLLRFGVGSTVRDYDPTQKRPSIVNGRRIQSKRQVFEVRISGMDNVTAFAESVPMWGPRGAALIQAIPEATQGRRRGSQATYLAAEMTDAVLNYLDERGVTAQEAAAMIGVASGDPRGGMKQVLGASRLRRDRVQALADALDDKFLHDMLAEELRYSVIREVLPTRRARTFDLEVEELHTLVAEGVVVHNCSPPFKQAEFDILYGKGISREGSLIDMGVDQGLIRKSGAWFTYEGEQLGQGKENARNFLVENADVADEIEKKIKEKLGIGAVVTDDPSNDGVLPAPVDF
Mtb betalactam – beta-lactam sensitization of Mtb H37Rv, H37Rv; M. tuberculosis H37Rv growth with meropenem, percent inhibition; hits of this screen are not shown here; inhibition, % at 25 µM; 330,000 compounds, 0.27% hits; AID 434955, 2010;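 active = about 74% or more and at least 40 points above the plate without the antibiotic, then above 30% in a dose series; inconclusive = first-round hits that could not be retested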;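 also: growth measured after seven days incubation then overnight dye step; 0% = bacteria only wells and 100% = bacteria with antibiotic; twin plates without the antibiotic show which effects depend on it; some results filed as inactive read as strong as hits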
Arbovirus anti – antivirals against arbovirus infection, primary screen, cell-based, full library, 10K replicate subset; arbovirus infection cell-based antiviral screen; inhibition, % at 10 µM; 200,000 compounds, 0.37% hits;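 active = inhibition from about 30%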;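 also: bluetongue infection of BSR cells; cell survival read as ATP light after 72 h; 0% = infected wells without compound and 100% = uninfected wells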
YopH inh – YopH tyrosine phosphatase inhibitors, primary screen, biochemical, fluorescence Ex485/Em525; inhibition, %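 (about 10 µM by stock and volumes)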; AID 898, 2007; 140,000 compounds, 0.16% hits; YopH tyrosine phosphatase [Yersinia enterocolitica];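 active = inhibition of 50% or more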;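 also: controls were vehicle for no effect and minimum signal wells for full effect; inactives centre near -20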
Arbovirus anti repeat – further read-out of Arbovirus anti, marked with its call; inhibition, %; measured here: 10K subset replicate screen; many hits read low in the repeat;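 first of two repeat runs on a subset; 0% = infected and 100% = uninfected wells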
The depositor's hits bear a star; ? = inconclusive; · = not tested or not shown. The list is partial. The share of hits here may be higher or lower than overall.

SMILES	Mtb H37Rv	RecA splice inh	Mtb betalactam	Arbovirus anti	YopH inh	others
COc1ccc(NC(=O)CSc2nnc(N)s2)c([N+](=O)[O-])c1	0%	-0.7	1	6	·
Cc1ccc(C(=O)COc2cc(C)nc3nncn23)cc1	-8%	1.7	-7	·	·
CC(C)CC(=O)Nc1c2c(nn1-c1ccc(F)cc1)CSC2	·	-1.7	4	5	-3	Arbovirus anti repeat=-1
O=C(O)CCN1C(=O)c2ccccc2C1=O	-18%	-3.2	1	11	3
O=C(CC1NCCNC1=O)NC1Cc2ccccc2C1 (centres undefined)	-1%	-2.3	-2	·	·
CCCN1CCC(NC(=O)Nc2ccc(OC)c(OC)c2)CC1	-9%	-0.1	-13	11	-26
CCc1ccc(-c2nc(CN3CCC(C(=O)NCCc4ccc(OC)c(OC)c4)CC3)c(C)o2)cc1	13%	0.3	?	-18	-27
Cn1c(Cl)nc2c1c(=O)n(Cc1cccc(Br)c1)c(=O)n2C	-4%	-0.4	?	4	-25
Cc1ccc(SCC(=O)N=C2NC(=O)CS2)cc1	4%	0.9	9	1	·
Cc1ccc(-c2ccc([C@H]3[C@@H]4C=CCC[C@@]4(C)C(=O)N3Cc3ccccc3)c(F)c2)cc1	8%	4.1	82	·	·
COC(=O)c1cc(OC)c(OC)cc1-n1cnc2cc(OC)c(OC)cc2c1=O	2%	1.9	9	0	-1	Arbovirus anti repeat=-2
COc1ccccc1C1=NN(C(=S)Nc2ccccc2)C(c2ccco2)C1 (centres undefined)	·	6.6	65	-19	-5
Cc1ccc(S(=O)(=O)c2c[nH]c3cc4c(cc3c2=O)OCO4)cc1	-3%	-3.7	-1	·	·
CC(O)CCc1ccc(O)cc1 (centres undefined)	12%	-0.5	-4	-5	·
C/C(=N\NC(=O)CNC(=O)c1ccc2c(c1)OCCO2)c1ccco1	-11%	0.4	0	·	·
CCN(c1cccc(C(F)(F)F)c1)S(=O)(=O)c1ccc2c(c1)CCN2C(C)=O	-4%	0.2	-2	-16	-12
COCCN(C(=O)Nc1ccc(OC)cc1OC)C1CCN(C(C)=O)CC1	-12%	-0.7	0	7	-38
COc1ccc(/C=C/C(=O)c2ccccc2)cc1Cn1nnc2ccccc21	19%	6.2	11	-34	-26
COc1cccc(-n2c(SCC(=O)OC(C)C)nnc2-c2cccnc2)c1	-4%	-0.4	3	3	28
Cc1nn(C)cc1/C=N/NC(=S)Nc1ccccc1	-8%	0.0	-2	-3	-23
O=C(O)CCC(=O)N1CCC[C@H]1C(=O)O	-8%	1.2	6	·	·
Cc1ccc(C)c(C(=O)CCC(=O)O)c1	-3%	-0.1	7	·	·
Cc1cc(C)n(NC(=S)NC2CCCCC2)c(=O)c1C#N	-10%	·	-6	·	·
NNC(=O)c1oc2ccccc2c1-n1cccc1	4%	-13	6	-10	·
Cc1cccc(-n2cnc(C(=O)NC3CCCCCC3)c2)n1	17%	0.2	72	-3	-26

Further records follow:
SMILES	Mtb H37Rv	RecA splice inh	Mtb betalactam	Arbovirus anti	YopH inh	others
CCCCc1c(O)nc(SCCC(=O)O)[nH]c1=O	-3%	·	·	2	-30
S=C1NCN(Cc2ccco2)CN1c1ccccc1	-4%	-0.9	-6	·	·
CCCCN1C(=O)NC(NC(=O)c2ccco2)(C(F)(F)F)C1=O (centres undefined)	-2%	2.2	9	5	-23
CC(=O)C1C(c2ccccc2)c2c(n[nH]c2C)CC1(C)O (centres undefined)	1%	-0.6	-10	5	11
Cc1ccc(S(=O)(=O)N2CCN(c3ncccn3)CC2)cc1C	·	0.6	-7	·	·
COc1cccc(Oc2ccc3nnc(C(F)(F)F)n3n2)c1	2%	-0.2	-3	2	·
O=C1/C(=C/c2ccncc2)SC(=S)N1C1CCS(=O)(=O)C1 (centres undefined)	1%	10	-2	1	-34
CCOCCCn1c(=S)[nH]c2cc(C(=O)N3CCC(C(N)=O)CC3)ccc2c1=O	-3%	-0.2	8	3	-21
CC1CCN(c2ccccc2NC(=S)NC(=O)C(C)(C)C)CC1	28%	1.2	11	-10	·
CCCCCCC1CCC(C(=O)NC(CCSC)C(=O)NC(C(=O)OC)C(C)C)CC1 (centres undefined)	-9%	1.9	-4	-11	-2
CC1=C(C)CC(C(=O)Nc2cccc([N+](=O)[O-])c2)C(C(=O)O)C1 (centres undefined)	-2%	6.7	4	3	-48
O=C(O)/C(=C\c1cccs1)c1ccc(F)cc1	4%	-4.6	1	5	·
O=[N+]([O-])c1ccc(C2NS(=O)(=O)N=C3CCCCCN32)cc1 (centres undefined)	-2%	-3.2	1	·	·
COc1ccc(NC(=O)CSc2ccccc2)c(OC)c1	23%	1.7	29	-14	-29
CC(/C=C/C1(O)C(C)CC(O)CC1(C)C)OC1OC(CO)C(O)C(O)C1O (centres undefined)	-2%	-5.3	-8	·	·
Cc1cccc(/C=N/NC(=O)c2ccc(F)cc2)n1	·	0.2	0	·	·
Cc1cccc(C(=O)NNc2ncnc3c2cnn3C)c1	-1%	0.1	3	21	·
Cc1cccc(NC(=O)CCS(=O)(=O)c2cc3c(cc2Cl)NC(=O)CO3)c1	·	0.2	0	·	·
CCn1c(=O)c2cc(C(=O)NC(C)C)sc2c2ccccc21	0%	-1.0	-6	·	·
Cc1noc(C)c1S(=O)(=O)N1CCC(C(=O)Nc2ccccn2)CC1	4%	2.2	-3	1	0
CCC(C)c1ccc(NC(=S)NCc2ccccc2OC)cc1 (centres undefined)	-5%	12	·	-40	·
NC(=O)c1ccc(Oc2ccc(-c3nnco3)cc2)c([N+](=O)[O-])c1	·	-3.5	2	·	·
COCCC(=O)N1CCC(Oc2ccc(C(=O)NCc3nccn3C)cc2)CC1	·	-0.4	3	·	·
CC(OC(=O)C1CCN(S(=O)(=O)c2ccc(F)cc2)CC1)C(=O)NC1CCCCC1C (centres undefined)	·	0.3	5	·	·
Cc1ccc(CSCC(=O)N(C)CC(=O)Nc2c(Cl)cccc2Cl)cc1	·	-2.3	-1	·	·

The list continues.
SMILES	Mtb H37Rv	RecA splice inh	Mtb betalactam	Arbovirus anti	YopH inh	others
Cc1cccc(NC(=S)NNC(=O)CC(C)O)c1C (centres undefined)	-12%	-0.8	-20	0	-34
COC(=O)c1ccc(S(=O)(=O)N2C3CCC2CC(NC(=O)C2CC2)C3)cc1 (centres undefined)	-8%	-1.5	10	4	-10
COC(=O)c1scc(C)c1NC(=O)Nc1ccccc1	2%	-0.8	-12	1	-41
O=C(Nc1cccnc1)c1ccc(F)c(S(=O)(=O)N2CCOCC2)c1	·	0.2	8	·	·
Cc1cccc(/C=C2\Sc3ccc(C(=O)N4CCC(C)CC4)cc3N(C)C2=O)c1	·	8.5	7	·	·
O=[N+]([O-])c1ccc(N2CCN(Cc3ccc4c(c3)OCO4)CC2)nc1	·	1.6	5	·	·
O=C(O)C1CC=CCC1C(=O)N1CCN(c2nc(-c3ccccc3)c3ccccc3n2)CC1 (centres undefined)	·	-109	-3	-4	-28
CCc1cccc(C)c1N(C(=O)Cn1c(CO)nc2ccccc21)C(C)COC (centres undefined)	-16%	0.6	-12	-3	-12
COc1ccccc1NC(=O)C(=O)NNC(=O)COc1ccc2ccccc2c1	·	2.5	59	·	·
COc1ccc(C)cc1-n1c(N)c(C#N)c(C#N)c1-c1ccc(OC)c(OC)c1OC	-2%	3.0	7	-12	-4
O=C(c1cccc(C(F)(F)F)c1)N1CCN(CCc2ccccc2)CC1	·	-3.1	5	·	·
CN(C)C(CNC(=O)CCc1nc2sc3c(c2c(=O)[nH]1)CCCC3)c1ccccc1 (centres undefined)	·	-7.3	-1	·	·
O=C(O)CC(c1ccc(C(F)(F)F)cc1)N1Cc2ccccc2C1=O (centres undefined)	·	1.1	-4	·	·
O=C1[C@@H]2CSCN2C(=O)CN1Cc1ccccc1F	·	0.8	1	·	·
O=C(Nc1ccc(S(=O)(=O)NC2=NCCCCC2)cc1)c1ccccc1Cl	-6%	-2.1	-5	·	·
COc1cc(C(=O)N(C)C2CCCCC2)ccc1OC1CCN(C(C)=O)CC1	·	-1.1	-1	·	·
CCOC(=O)C1C(c2ccccc2)C(C(=O)OCC)S(=O)(=O)C(CCN(CC)CC)S1(=O)=O (centres undefined)	-8%	-1.3	-1	-1	·
CCc1c(C)nc2c(-c3ccccc3)c(-c3ccccc3)[nH]n2c1=O	·	1.0	25	·	·
Cc1ccc(NS(=O)(=O)c2ccc3c(c2)n(C)c(=O)n3C)cc1	·	1.6	2	·	·
O=[N+]([O-])c1ccc(C=Nc2ccc(Cl)cc2Cl)s1	10%	-2.9	98	-30	43
C#CCOc1nc(OCC#C)nc(OCC#C)n1	-2%	2.8	-15	0	-51

In the list so far, these contain four or more nitrogen atoms:
SMILES	Mtb H37Rv	RecA splice inh	Mtb betalactam	Arbovirus anti	YopH inh	others
COc1ccc(NC(=O)CSc2nnc(N)s2)c([N+](=O)[O-])c1	0%	-0.7	1	6	·
Cc1ccc(C(=O)COc2cc(C)nc3nncn23)cc1	-8%	1.7	-7	·	·
Cn1c(Cl)nc2c1c(=O)n(Cc1cccc(Br)c1)c(=O)n2C	-4%	-0.4	?	4	-25
COc1cccc(-n2c(SCC(=O)OC(C)C)nnc2-c2cccnc2)c1	-4%	-0.4	3	3	28
Cc1nn(C)cc1/C=N/NC(=S)Nc1ccccc1	-8%	0.0	-2	-3	-23
Cc1cc(C)n(NC(=S)NC2CCCCC2)c(=O)c1C#N	-10%	·	-6	·	·
Cc1cccc(-n2cnc(C(=O)NC3CCCCCC3)c2)n1	17%	0.2	72	-3	-26
Cc1ccc(S(=O)(=O)N2CCN(c3ncccn3)CC2)cc1C	·	0.6	-7	·	·
COc1cccc(Oc2ccc3nnc(C(F)(F)F)n3n2)c1	2%	-0.2	-3	2	·
CCOCCCn1c(=S)[nH]c2cc(C(=O)N3CCC(C(N)=O)CC3)ccc2c1=O	-3%	-0.2	8	3	-21
O=[N+]([O-])c1ccc(C2NS(=O)(=O)N=C3CCCCCN32)cc1 (centres undefined)	-2%	-3.2	1	·	·
Cc1cccc(C(=O)NNc2ncnc3c2cnn3C)c1	-1%	0.1	3	21	·
Cc1noc(C)c1S(=O)(=O)N1CCC(C(=O)Nc2ccccn2)CC1	4%	2.2	-3	1	0
NC(=O)c1ccc(Oc2ccc(-c3nnco3)cc2)c([N+](=O)[O-])c1	·	-3.5	2	·	·
COCCC(=O)N1CCC(Oc2ccc(C(=O)NCc3nccn3C)cc2)CC1	·	-0.4	3	·	·
O=[N+]([O-])c1ccc(N2CCN(Cc3ccc4c(c3)OCO4)CC2)nc1	·	1.6	5	·	·
O=C(O)C1CC=CCC1C(=O)N1CCN(c2nc(-c3ccccc3)c3ccccc3n2)CC1 (centres undefined)	·	-109	-3	-4	-28
COc1ccc(C)cc1-n1c(N)c(C#N)c(C#N)c1-c1ccc(OC)c(OC)c1OC	-2%	3.0	7	-12	-4
CN(C)C(CNC(=O)CCc1nc2sc3c(c2c(=O)[nH]1)CCCC3)c1ccccc1 (centres undefined)	·	-7.3	-1	·	·
